# rRNA inh HTS: inhibitors of bacterial rRNA selective over humanized ribosomes; E. coli WT GFP vs humanized-ribosome RFP mutants, fluorescence, 24 h; active compounds read low; DMSO median 0, no signal -100; GFP signal change (wild-type ribosome), % (test concentration not listed); 350,000 compounds, 1.6% hits;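 active = significant combined selectivity score with lowered wild-type GFP, culture density cut under 30%, mutant RFP and density less affected; inactive = any of these conditions unmet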; also: one replicate is shown; some compounds called inactive have numbers as strong as hits
# MLL AF4-AF9 inh: MLL-AF4/AF9 protein interaction inhibition; 350,000 compounds, 0.47% hits; P42568; AlphaScreen, biotin-AF4 peptide binding to FLAG-AF9; inhibition, % at 10 µM;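 active = every replicate reaching a set inhibition limit, whatever the replicate mean, cut at about 25% in these data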;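 also: 0% = plate neutral control median and 100% = total signal loss; the record names both 10 and 1 µM as test concentration; the first replicate is given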
# Target sequence (P42568 whole entry, looked up): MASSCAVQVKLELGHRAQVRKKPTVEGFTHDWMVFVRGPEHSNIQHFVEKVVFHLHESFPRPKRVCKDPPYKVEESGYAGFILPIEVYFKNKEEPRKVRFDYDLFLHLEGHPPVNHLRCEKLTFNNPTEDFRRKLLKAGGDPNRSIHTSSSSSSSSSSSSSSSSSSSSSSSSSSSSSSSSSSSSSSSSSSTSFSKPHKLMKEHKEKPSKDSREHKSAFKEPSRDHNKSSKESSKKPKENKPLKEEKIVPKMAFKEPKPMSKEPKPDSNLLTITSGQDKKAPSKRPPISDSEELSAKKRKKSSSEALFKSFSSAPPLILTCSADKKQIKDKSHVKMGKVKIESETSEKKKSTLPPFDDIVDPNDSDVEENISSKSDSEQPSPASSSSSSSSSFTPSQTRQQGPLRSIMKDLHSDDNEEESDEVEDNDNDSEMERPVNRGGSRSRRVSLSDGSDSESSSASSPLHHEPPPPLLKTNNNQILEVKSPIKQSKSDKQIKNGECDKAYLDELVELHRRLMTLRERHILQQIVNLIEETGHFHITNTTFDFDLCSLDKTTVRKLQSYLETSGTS
# rRNA inh HTS OD600: second read-out of rRNA inh HTS, no call of its own (marks repeat the call); OD600 change, %; measured here: OD600 growth;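 optical density of the mix in the first replicate; 0 = DMSO median and -100 = no signal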
# rRNA inh HTS RFP: also measured in rRNA inh HTS; calls as there; RFP signal change, %; measured here: RFP humanized mutant strains;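 first replicate; 0 = DMSO median and -100 = no signal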
# * marks the source's active call; other numbers are inactive results; & = joins results of further samples.
SMILES,rRNA inh HTS,rRNA inh HTS OD600,rRNA inh HTS RFP,MLL AF4-AF9 inh
Cc1noc(C)c1NC(=O)N[C@@H]1CC[C@H](CC(=O)NCc2ccc(Cl)c(Cl)c2)O[C@@H]1CO,-1.8,-3.6,0.9,-0.3
CN1c2ccc(-c3ccccc3F)cc2[C@H]2[C@H](CCN2C(=O)NC2CCCCC2)[C@@H]1CO,-10.9,-30.6,17.4,7.8
COCC#Cc1ccc([C@H]2[C@@H](CO)N3CCCCN(C(=O)CN(C)C)C[C@@H]23)cc1,10.9,15.0,-0.8,-4.3
COc1cccc(S(=O)(=O)N2C[C@H](O)COC[C@H]3O[C@H](CC(=O)NCCCN4CCOCC4)CC[C@@H]32)c1,2.7,7.9,1.1,-0.8
C[C@@H](O)C#Cc1ccc([C@H]2[C@@H](CO)N3CCCCN(C(=O)c4cccc(F)c4)C[C@H]23)cc1,1.6,4.6,-0.2,-2.4
CCC(=O)Nc1ccc2c(c1)C(=O)N(C)C[C@H](OC)[C@H](C)CN(Cc1ccccc1C(=O)O)[C@H](C)CO2,3.0,-1.2,-1.5,-19.0
COc1ccc2c3c([nH]c2c1)[C@H](CO)N(Cc1nccs1)CC31CCN(C(=O)C2CCC2)CC1,0.2,8.0,0.4,-1.9
CC(=O)Nc1ccc(C(=O)N2CCCCC2c2cc(C(=O)NCc3ccc(F)cc3)no2)cc1 (configuration not stated),7.4,3.7,0.8,0.6
CCNC(=O)Nc1ccc2c(c1)C(=O)N(C)[C@H]1CC[C@H](CC(=O)NCCOC)O[C@@H]1CO2,3.9,11.5,-3.5,-1.0
COc1cccc(NC(=O)N(C)C[C@H]2Oc3cc(Br)ccc3S(=O)(=O)N([C@H](C)CO)C[C@H]2C)c1,-11.7&-9.6,-9.0&-12.8,8.3&0.1,-1.8&-0.8
Cc1cccc(S(=O)(=O)N2C[C@@H](O)COC[C@H]3O[C@H](CC(=O)NCCCN4CCOCC4)CC[C@@H]32)c1,1.2,2.1,-4.7,1.4
CO[C@@H]1CN(C)C(=O)c2ccc(NC(=O)Nc3cc(F)ccc3F)cc2OC[C@H](C)N(C(=O)c2cnccn2)C[C@H]1C,-0.4,2.8,2.3,3.3
COCCNc1nc(NCc2ccc(C(C)C)cc2)c2sccc2n1,-58.5,-78.8,-18.5,2.0
CC(C)CC#Cc1cnc2c(c1)C(=O)N([C@@H](C)CO)C[C@H](C)[C@H](CN(C)C(=O)Cc1ccncc1)O2,-0.2,9.6,-3.5,0.9
COCC(=O)Nc1ccc2c(c1)[C@@H]1C[C@@H](CC(=O)NC3CCCC3)O[C@H](CO)[C@@H]1O2,1.0,21.6,-2.9,-0.8
Cc1ccc2nc(C(C)(C)C)c(Cc3ccccc3C(F)(F)F)n2c1,-10.9,-17.3,4.1,-0.9
CN(C)C(=O)c1cccc(-c2ccc([C@H]3[C@@H](C#N)N(C(=O)C4CC4)[C@@H]3CO)cc2)c1,1.8,5.0,0.2,-2.3
C[C@H](CO)N1C[C@H](C)[C@@H](CN(C)C(=O)Nc2ccc3c(c2)OCO3)Oc2ccc(NC(=O)Cc3cn(C)c4ccccc34)cc2CC1=O,-0.6,1.7,-0.9,6.5
Cc1noc(C)c1NC(=O)N(C)C[C@H]1OCc2ccccc2-c2ccccc2C(=O)N([C@H](C)CO)C[C@H]1C,4.7,8.5,-3.0,-1.1
O=C(Nc1ccc2c(c1)[C@H]1C[C@H](CC(=O)N3CCc4ccccc4C3)O[C@H](CO)[C@H]1O2)c1cccnc1,-4.6,-1.0,1.7,0.7
C[C@H](CO)N1C[C@H](C)[C@@H](CN(C)Cc2cncnc2)Oc2cc(C3=CCCCC3)ccc2S1(=O)=O,-5.5,-27.2,6.0,4.4
C[C@H]1CN([C@@H](C)CO)C(=O)c2cccc(NC(=O)c3nc4ccccc4s3)c2O[C@H]1CN(C)C(=O)NC1CCCCC1,-10.1,-16.2,-0.2,6.2
O=C(Cc1ccccc1)N[C@@H]1C=C[C@@H](CC(=O)N2CCOCC2)O[C@H]1CO,-1.8,0.3,0.1,0.1
C[C@H](CO)N1C[C@H](C)[C@H](CN(C)CC2CCOCC2)Oc2cc(-c3cccnc3)ccc2S1(=O)=O,1.6,5.2,-3.7,-1.3
CCCC#Cc1ccc([C@H]2[C@H](CO)N3CCCCN(Cc4cncnc4)C[C@@H]23)cc1,-2.4,5.4,-0.7,11.5
# The results go on:
SMILES,rRNA inh HTS,rRNA inh HTS OD600,rRNA inh HTS RFP,MLL AF4-AF9 inh
Cc1ccc(S(=O)(=O)N[C@@H]2CC[C@H](CCn3cc(C(C)C)nn3)O[C@H]2CO)cc1,2.6,0.8,0.4,-0.1
C[C@@H]1CN([C@H](C)CO)C(=O)c2cc(C#Cc3cccc(F)c3)cnc2O[C@@H]1CN(C)C(=O)C1CCCCC1,-14.3,-36.0,27.1,-9.1
COc1cccc(-c2cc3nc(NCCOc4ccccc4Cl)n(C)c(=O)c3s2)c1,26.5,21.2,1.0,-2.2
C[C@@H]1CCCCO[C@@H](CN(C)C(=O)Nc2ccc3c(c2)OCO3)[C@@H](C)CN([C@@H](C)CO)C(=O)c2cc(NC(=O)Nc3cccc4ccccc34)ccc2O1,5.1,13.6,-1.8,-1.5
CNC(=O)C[C@H]1CC[C@@H]2[C@@H](COc3ccc(NS(=O)(=O)c4cccc(F)c4)cc3C(=O)N2C)O1,0.4,-1.7,-2.3,-1.9
CO[C@@H]1CN(C)C(=O)c2cc(NC(=O)Nc3cc(F)ccc3F)ccc2OC[C@H](C)N(C(=O)c2cnccn2)C[C@H]1C,-5.3,-5.0,-0.8,0.1
C[C@@H]1CN([C@H](C)CO)S(=O)(=O)c2ccc(C3=CCCCC3)cc2O[C@@H]1CN(C)C(=O)Nc1ccc2c(c1)OCO2,-0.1,-2.2,18.1,9.7
C[C@@H]1CN([C@@H](C)CO)C(=O)c2cc(NC(=O)C3CC3)ccc2O[C@@H]1CN(C)C(=O)Nc1ccc(F)cc1,2.7,2.6,-3.0,-0.3
CCCN1C[C@H](C)[C@H](OC)CN(C)C(=O)c2ccc(NC(=O)Nc3cccc(F)c3)cc2OC[C@H]1C,-3.6,-1.0,4.1,4.9
C[C@@H]1CN([C@H](C)CO)C(=O)c2cc(NC(=O)CCC(F)(F)F)ccc2O[C@H]1CN(C)Cc1ccc(-c2ccccc2)cc1,-4.6,-6.4,13.1,7.4
Cc1ccc(S(=O)(=O)Nc2ccc3c(c2)C(=O)N([C@@H](C)CO)C[C@H](C)[C@@H](CN(C)Cc2ccncc2)OCCCC[C@H](C)O3)cc1,-1.5,-2.1,1.6,-1.2
C[C@H]1CN([C@@H](C)CO)C(=O)Cc2cc(N(C)C)ccc2O[C@@H]1CN(C)C(=O)NC1CCCCC1,0.0,-1.4,-2.2,-1.8
CN1c2ccc(C3=CCCCC3)cc2[C@@H]2[C@@H](CCN2C(=O)C2CC2)[C@H]1CO,-2.9,6.7,0.5,18.3
CCNC(=O)[C@H]1[C@H](CO)[C@H]2Cn3c(ccc(-c4ccccc4)c3=O)[C@@H]1N2C(=O)c1ccccn1,2.2,7.5,-4.7,-1.0
CC(=O)Nc1cnc(-c2cccc(C(=O)N(C)C)c2)cn1,1.8,9.1,-3.2,-2.9
O=C(N[C@H]1C=C[C@@H](CC(=O)N2CCc3ccccc3C2)O[C@H]1CO)C1CC1,-1.2,-7.1,-1.6,-1.8
Cc1ccc(-c2cnc3c(c2)C(=O)N([C@H](C)CO)C[C@H](C)[C@@H](CN(C)C(=O)c2ccccc2)O3)cc1,-5.3,-7.2,-0.4,0.0
Oc1cccc(-c2csc(C(O)(c3ccccc3)C(F)(F)F)n2)c1 (configuration not stated),-62.7,-78.9,-23.4,0.9
O=C(C[C@H]1C[C@H]2c3cc(NC(=O)C4CCC4)ccc3O[C@H]2[C@@H](CO)O1)NCc1ccncc1,3.4,1.3,0.4,-1.6
COCC#Cc1ccc([C@H]2[C@H](CO)N3C(=O)CN(C(=O)Nc4ccccc4F)C[C@@H]23)cc1,2.5,-2.5,-0.3,-2.9
CC(C)CN1CCN(C(=O)COC(=O)c2ccc(S(C)(=O)=O)c([N+](=O)[O-])c2)CC1,15.1,13.5,4.1,-13.0
CCS(=O)(=O)NCC[C@H]1CC[C@H](NS(=O)(=O)c2cccc(Cl)c2)[C@@H](CO)O1,-2.0,4.2,2.0,-3.6
CCC(=O)Nc1ccc2c(c1)OC[C@H](C)N(Cc1cccnc1)C[C@@H](C)[C@@H](OC)CN(C)C2=O,-1.5,-0.1,-0.3,-22.2
O=C(C1CC1)N1C[C@H]2[C@@H](c3ccccc31)[C@H](CO)N2C(=O)c1ccccn1,4.5,-1.2,-2.5,-10.6
CCC(=O)Nc1ccc2c(c1)C(=O)N(C)[C@H]1CC[C@H](CC(=O)Nc3c(F)cccc3F)O[C@@H]1CO2,1.6,5.6,0.1,-3.0
# Other structures
SMILES,rRNA inh HTS,rRNA inh HTS OD600,rRNA inh HTS RFP,MLL AF4-AF9 inh
CNC[C@@H]1Oc2c(NS(=O)(=O)c3cccs3)cccc2C(=O)N([C@H](C)CO)C[C@H]1C,-0.8,-1.1,0.1,-5.3
C=CCN1CC(COc2ccc(OC)cc2)OCCS1(=O)=O (configuration not stated),-4.9,-4.3,5.0,-1.0
CC=Cc1ccc2n(c1=O)C[C@@H]1[C@@H](CO)[C@H](C(=O)NCCCN3CCOCC3)[C@H]2N1Cc1cocn1 (mixture of isomers),1.0,4.7,0.4,-18.8
COc1ccc(NC(=O)N(C)C[C@@H]2Oc3ccc(NC(=O)Nc4c(C)noc4C)cc3CC(=O)N([C@@H](C)CO)C[C@H]2C)cc1,3.1,3.1,0.0,-6.3
C[C@@H]1CCCCO[C@@H](CN(C)S(=O)(=O)c2ccc(F)cc2)[C@@H](C)CN([C@@H](C)CO)C(=O)c2cc(NC(=O)Nc3ccc4c(c3)OCO4)ccc2O1,1.6,2.8,-2.7,-0.1
COc1ccc(-c2ccc3c(c2)[C@@H]2[C@@H](CCN2C(=O)NC2CCCCC2)[C@@H](CO)N3C)cc1,-12.9,-18.8,22.6,7.1
COCC#Cc1ccc2c(c1)O[C@@H](CN(C)C(=O)C1CCOCC1)[C@@H](C)CN([C@H](C)CO)S2(=O)=O,4.9,28.1,-2.0,-2.2
C[C@H]1CCCCO[C@H](CN(C)C(=O)Nc2ccccc2)[C@@H](C)CN([C@@H](C)CO)C(=O)c2cc(NS(=O)(=O)c3cccs3)ccc2O1,-3.2,-9.3,1.8,1.7
CC1(C(=O)Nc2cccc(NS(C)(=O)=O)c2)CCN1CCc1ccccc1 (configuration not stated),-8.9,-25.2,-8.5,3.3
CC(C)c1ccc(NC(=O)C2(C)Cc3c(-c4ccc(C(N)=O)cc4)ccnc3O2)cc1 (configuration not stated),-13.1,-23.7,4.3,0.9
C[C@@H]1CN([C@@H](C)CO)C(=O)c2cc(NC(=O)Nc3ccccc3)ccc2O[C@@H]1CN(C)CC1CC1,1.0,-4.5,0.0,20.1
COC(=O)C[C@H]1C[C@H]2c3cc(NS(=O)(=O)c4ccc(F)cc4)ccc3O[C@H]2[C@@H](CO)O1,-0.5,-2.5,-1.7,1.9
O=C(N[C@H]1CC[C@H](CCNC(=O)c2ccccc2F)O[C@@H]1CO)c1cnccn1,-2.8,-0.2,-2.5,-0.7
O=C(NCCc1ccccc1F)C1CC(=O)N(c2cccc(C(F)(F)F)c2)C1 (configuration not stated),-6.5,-10.7,-2.6,-1.6
Cc1noc(C)c1NC(=O)N(C)C[C@H]1OCCCC[C@H](C)Oc2ccc(NS(=O)(=O)c3cccs3)cc2C(=O)N([C@@H](C)CO)C[C@H]1C,0.6,2.6,-1.2,-2.6
C[C@@H]1CN([C@H](C)CO)C(=O)c2cc(NC(=O)Nc3ccc(C(F)(F)F)cc3)ccc2O[C@H]1CN(C)Cc1ccccc1,-2.6,-2.0,-0.8,4.6
C[C@@H]1CN([C@H](C)CO)C(=O)c2cc(NC(=O)Nc3cccc4ccccc34)ccc2O[C@H]1CN(C)Cc1ccccc1,-7.2,-6.0,4.7,3.6
CCCCn1nnnc1C1(C)CCC(=O)N1Cc1ccc(C)cc1 (configuration not stated),12.3,14.1,0.6,-4.7
C[C@H](CO)N1C[C@H](C)[C@@H](CN(C)S(=O)(=O)c2ccc(F)cc2)Oc2ccc(NS(C)(=O)=O)cc2C1=O,-1.1,-6.8,1.9,-1.4
COC(=O)[C@]12CCCCC=C1N(Cc1cccc3ccccc13)C(=O)[C@H](CC(=O)N1CCOCC1)C2,-36.7,-66.8,-6.4,4.8
COc1ccc(Nc2c(CCc3ccccc3)nc3nc(C)cc(C)n23)cc1,-4.4,6.8,3.4,12.1

# No new results follow: five of the compounds above.
SMILES,rRNA inh HTS,rRNA inh HTS OD600,rRNA inh HTS RFP,MLL AF4-AF9 inh
O=C(N[C@H]1CC[C@H](CCNC(=O)c2ccccc2F)O[C@@H]1CO)c1cnccn1,-2.8,-0.2,-2.5,-0.7
O=C(NCCc1ccccc1F)C1CC(=O)N(c2cccc(C(F)(F)F)c2)C1 (configuration not stated),-6.5,-10.7,-2.6,-1.6
Cc1noc(C)c1NC(=O)N(C)C[C@H]1OCCCC[C@H](C)Oc2ccc(NS(=O)(=O)c3cccs3)cc2C(=O)N([C@@H](C)CO)C[C@H]1C,0.6,2.6,-1.2,-2.6
C[C@@H]1CN([C@H](C)CO)C(=O)c2cc(NC(=O)Nc3ccc(C(F)(F)F)cc3)ccc2O[C@H]1CN(C)Cc1ccccc1,-2.6,-2.0,-0.8,4.6
C[C@@H]1CN([C@H](C)CO)C(=O)c2cc(NC(=O)Nc3cccc4ccccc34)ccc2O[C@H]1CN(C)Cc1ccccc1,-7.2,-6.0,4.7,3.6

# Source: PubChem BioAssay

# Some of the compounds tested (hit frequency here may not be typical).
